From PubChem
Vaccinia mCherry = qHTS for Stage-Specific Inhibitors of Vaccinia Orthopoxvirus: mCherry Reporter Primary qHTS | 0.63% of 310,000 active | AID 720579, 2013 | Potency, µM (top dose mostly 36.5 µM), for the others: top-dose activity change, negative = inhibition, most hits filed as inhibitors | Vaccinia virus mCherry reporter infection, fluorescence; about a quarter of the inactives have no number; active = well fitted inhibition curve with a large enough effect; inconclusive = small, poorly fitted or top-dose-only effect; inactive = no such curve, though single readings can be large or run the other way; tested in A549 cells; further: nearly all actives have a fitted effect of over 35% in size; inactives centre near -10
VACV Venus inh = qHTS for Stage-Specific Inhibitors of Vaccinia Orthopoxvirus: Venus Reporter Primary qHTS. Vaccinia virus Venus reporter expression, fluorescence. Potency, µM (series often up to 36.5 µM), for inactives: at the top dose activity change, negative = inhibition, actives largely listed as inhibitors. 0.46% of 330,000 active; active means well fitted inhibition curve with a large enough effect; inconclusive means small, poorly fitted or top-dose-only effect; inactive means no such curve, though single readings can be large or run the other way; tested in A549 cells; further: nearly all actives have a fitted effect of over 30% in size; inactives centre near -10
* = called active by the depositor; i = inactive; ? = inconclusive; · = not tested or not shown; & = joins results of further samples; [ ] = dose if it differs, or a comment. On the % scale 0 is the no-effect control and ±100 the full control effect; potency means the concentration at half of the fitted maximal effect.

SMILES	Vaccinia mCherry	VACV Venus inh
COc1cc(NS(=O)(=O)c2ccc(N/C=C(\C#N)c3nc4cc(Cl)ccc4o3)cc2)nc(OC)n1	·	?
CN(C)C(=O)c1cccc(-c2cc(NC=O)c3ncc(-c4ccc(F)c(Cl)c4)n3c2)c1	?	?
COc1ccc(Cn2nc(C)n(N(C)c3ncc(C(F)(F)F)cc3Cl)c2=O)cc1	-6.8%	-9.5%
COc1ccc(NC(=O)CN(C)C(=O)c2ccc(N3CCOCC3)c([N+](=O)[O-])c2)cc1	-5.6%	-23.8%
CCOC(=O)c1sc(NC(=O)Cn2nnc3sc4c(c3c2=O)CCCC4)nc1C	-4.0%	-3.8%
COc1cccc(CN2CCC2(C)C(=O)Nc2cccc3cccnc23)c1F (centres undefined)	-19.7%	-23.6%
CC1CCCCC1NC(=O)COC(=O)c1ccccc1NC(=O)c1ccco1 (centres undefined)	-18.7%	-5.8%
C[C@H](CO)N1C[C@H](C)[C@@H](CN(C)S(C)(=O)=O)Oc2c(NC(=O)C3CCCCC3)cccc2C1=O	i	-8.7%
CCOC(=O)[C@]12CCCC=C1N(Cc1ccc3c(c1)OCO3)C(=O)[C@H](CC(=O)N1CCC(c3ccccc3)CC1)C2	-16.0%	?
COc1cc(OC)cc(-c2cc3nc(C4CCN(C(=O)OC(C)(C)C)CC4)cc(=O)n3[nH]2)c1	1.2%	-12.7%
O=C(CCS(=O)(=O)c1ccccc1)Nc1nnc(-c2ccco2)o1	11.2µM*	?
O=[N+]([O-])c1cc(C(F)(F)F)ccc1NCCc1ccncc1	i	-12.2%
COc1ccc(N(CC(=O)Nc2ccccc2C(=O)N2CCOCC2)S(=O)(=O)c2ccc(F)cc2)cc1	-14.1%	-9.5%
CCOC(=O)c1ccc[n+](C(C)C(=O)c2ccc(-c3ccccc3)cc2)c1 (centres undefined)	i	57.8%[activator]
CN(Cc1ccccc1)C(=O)c1ccc(NC(=O)C2CCN(C(=O)OC(C)(C)C)CC2)cc1	?	?
CC(=O)NC(C)C(=O)OCc1ccc(Cl)cc1Cl (centres undefined)	·	-10.4%
CCOC(=O)CSc1nc2ccc(NC(=O)c3ccc(Cl)cc3)cc2s1	-9.3%	1.1%
COc1ccc(OCCOC(=O)CNC(=O)c2ccc(C)cc2)cc1	-12.5%	-15.1%
O=C(CSCc1ccccc1Cl)N1CCN(c2ccc(F)cc2)CC1	-11.7%	-4.5%
COc1cccc(-c2cnc(C(O)c3cccc(OC)c3)[nH]2)c1 (centres undefined)	38.9%[activator]	3.0%
Cc1ccc(CNC(=O)c2cc(S(=O)(=O)N3CCOCC3)cn2C)cc1	25.1%	-1.0%
CCOc1ccc(N2CC(NS(=O)(=O)c3cccnc3)CC2=O)cc1 (centres undefined)	i	-1.8%
C=CCC[C@H](Cc1ccc(F)cc1)C(=O)OC[C@H](Cc1c[nH]c2ccccc12)NC(=O)[C@@H](CC=C)CC(=O)N[C@@H](CO)Cc1ccccc1	-29.7%	10µM*
O=C(N/N=C/c1ccco1)C1CC1(c1ccccc1)c1ccccc1 (centres undefined)	-8.8%	-16.8%
CC(C)CCOc1ccc(C(=O)NCC2OCCc3ccccc32)cc1 (centres undefined)	7.9%	3.9%

(cont.)
SMILES	Vaccinia mCherry	VACV Venus inh
CC(CN1CCCCC1)NC(=O)c1cc(-c2ccccn2)nc2ccc(Cl)cc12 (centres undefined)	0.0%	-4.3%
CC(C)(C)NNC(=S)Nc1ccc(S(=O)(=O)N2CCOCC2)cc1	-6.6%	-0.6%
COc1ccc(C(c2nnnn2-c2ccc3c(c2)OCCO3)N2CCC3(CC2)C(=O)NCN3c2ccccc2)cc1 (centres undefined)	14.8%	-3.9%
CC(C)(C)c1[nH]ncc1[N+](=O)[O-]	i	-1.2%
COc1ccccc1-n1nc(C(=O)NCc2ccco2)c2ccccc2c1=O	·	-24.8%
COc1ccc(N(C(=O)c2cccc(C)c2)S(=O)(=O)c2ccc3c(c2)n(C)c(=O)n3C)cc1	-21.4%	-19.5%
O=C1NCCCC1C(=O)Nc1ccccn1 (centres undefined)	-13.4%	-8.7%
Cc1noc(C)c1CSCC(=O)Nc1cc(Cl)ccc1N1CCCCC1	-2.6%	-18.9%
CC(=O)N/C(=C/c1ccc2c(c1)OCO2)C(=O)NCc1ccccc1	7.2%	5.0%
CCNC(=S)NCc1ccc(F)cc1	-10.8%	-5.0%
CNC(=O)CSc1nnc(COc2ccc([N+](=O)[O-])cc2)n1C	i	-7.1%
Cc1ccc(NC(=O)CSCC(=O)N2c3ccccc3CCc3ccccc32)cc1	-4.9%	-17.6%
CCCc1cc(C(=O)Cc2ccc(C(=O)OCC)o2)c(O)cc1O	-13.3%	10.8%
COc1ccc(S(=O)(=O)N(C)C[C@H]2Oc3c(NC(=O)Nc4ccc5c(c4)OCO5)cccc3C(=O)N([C@H](C)CO)C[C@@H]2C)cc1	i	-24.9%
CCOC(=O)C1=C(C)OC(N)=C(C#N)C1c1cc(C)sc1C (centres undefined)	·	16.0%
Nc1ccccc1N	-14.8%	4.8%
CCC1=C(OC(=O)N(CC)CC)N2C(=O)OC(=NCC3CC3)[C@]2(Cc2ccccc2)[C@H]2C1=CC[C@H]1C(=O)N(C)C(=O)[C@H]12	-21.6%	-20.2%
Cn1c(=O)[nH]c2nncnc2c1=O	-0.3%	8.5%
CCN(CC)S(=O)(=O)c1cccc(-c2nnc(SCC(=O)NC)n2N)c1	i	6.5%
COc1ccc(S(=O)(=O)N(C)CC(=O)Nc2ccc(C(N)=O)cc2)cc1OC	-9.8%	-12.1%
Cc1ccccc1NC(=S)N1CCN(Cc2ccccc2)CC1	?	-23.6%
O=C(NC1CCCCC1)C(c1ccncc1)N(C(=O)c1ccco1)c1ccc(F)cc1 (centres undefined)	-0.6%	-1.8%
Cc1ccc(N2C(=O)N(CC(=O)Nc3ccccc3C(F)(F)F)C(=O)C2C)cc1 (centres undefined)	-0.5%	-16.3%
N#Cc1c(NC(=O)C2CC(c3c(F)cccc3Cl)=NO2)sc2c1CCC2 (centres undefined)	i	-13.8%
Cc1ccccc1NC(=O)CSc1nc2c(oc3ccccc32)c(=O)n1Cc1ccco1	-9.1%	-9.3%

Twelve compounds from above, sorted by SMILES length, ascending.
SMILES	Vaccinia mCherry	VACV Venus inh
CCNC(=S)NCc1ccc(F)cc1	-10.8%	-5.0%
Cn1c(=O)[nH]c2nncnc2c1=O	-0.3%	8.5%
CC(C)(C)c1[nH]ncc1[N+](=O)[O-]	i	-1.2%
Cc1ccccc1NC(=S)N1CCN(Cc2ccccc2)CC1	?	-23.6%
Cc1noc(C)c1CSCC(=O)Nc1cc(Cl)ccc1N1CCCCC1	-2.6%	-18.9%
CNC(=O)CSc1nnc(COc2ccc([N+](=O)[O-])cc2)n1C	i	-7.1%
CC(=O)N/C(=C/c1ccc2c(c1)OCO2)C(=O)NCc1ccccc1	7.2%	5.0%
CC(CN1CCCCC1)NC(=O)c1cc(-c2ccccn2)nc2ccc(Cl)cc12 (centres undefined)	0.0%	-4.3%
COc1ccc(S(=O)(=O)N(C)CC(=O)Nc2ccc(C(N)=O)cc2)cc1OC	-9.8%	-12.1%
O=C(NC1CCCCC1)C(c1ccncc1)N(C(=O)c1ccco1)c1ccc(F)cc1 (centres undefined)	-0.6%	-1.8%
COc1ccc(S(=O)(=O)N(C)C[C@H]2Oc3c(NC(=O)Nc4ccc5c(c4)OCO5)cccc3C(=O)N([C@H](C)CO)C[C@@H]2C)cc1	i	-24.9%
CCC1=C(OC(=O)N(CC)CC)N2C(=O)OC(=NCC3CC3)[C@]2(Cc2ccccc2)[C@H]2C1=CC[C@H]1C(=O)N(C)C(=O)[C@H]12	-21.6%	-20.2%

Later entries:
SMILES	Vaccinia mCherry	VACV Venus inh
O=C1OCC/C1=C\NCCCCCCCCN/C=C1\CCOC1=O	i	-9.4%
C[C@@H]1CN([C@@H](C)CO)C(=O)c2cc(NC(=O)C3CCCCC3)ccc2O[C@@H](C)CCCCO[C@@H]1CN(C)C(=O)CCCN(C)C	-14.1%	-6.4%
Cc1cc(F)ccc1S(=O)(=O)N1CCCOC1CNC(=O)C(=O)NCCc1c[nH]c2ccccc12 (centres undefined)	-15.0%	-19.1%
CCOc1cccc(NC(=O)c2ccc(S(=O)(=O)N3CCCC3)cc2)c1	?	-20.3%
Cc1ccc(C2C(C(=O)c3cccs3)=C(O)C(=O)N2c2ccc(S(N)(=O)=O)cc2)cc1 (centres undefined)	-24.2%	-10.1%
CCOc1ccc(NC(=O)CN(C)C(=O)CCCn2c(=O)oc3ccccc32)cc1OCC	-23.7%	-10.7%
COc1ccc(OC)c(/C=N/NC(=O)C(=O)NCc2cccnc2)c1	6.4%	-7.9%
Cn1c(=O)c2[nH]c(CN3CCCCC3)nc2n(C)c1=O	i	-1.7%
Cc1c(C(=O)C(=O)N2CC=C(c3ccccc3)CC2)c2ccccc2n1C	?	-21.3%
COc1ccc(N2C(=O)CC(Sc3n[nH]c(-c4ccccc4)n3)C2=O)cc1 (centres undefined)	-17.9%	-12.2%
Cc1ccc(C)c(N2CCN(CCCNC(=O)c3ccc4nc(C(C)C)oc4c3)CC2)c1	-16.6%[7.34 µM]	-20.0%[7.34 µM]
COc1ccc(-n2ccc(-c3sc(NCc4cc(OC)c5c(c4)OCO5)nc3C)n2)cc1	-15.7%	-10.2%
CCN1CCN(C(=O)/C=C/c2ccc(C)cc2)CC1	-11.8%	-4.4%
COc1cc2cc(C(=O)O)[nH]c2c(OC)c1OC	i	-13.2%
CCc1nc(SC)[nH]c(=O)c1C	-6.9%	-10.8%
COc1ccccc1OCC#CCN1CCOCC1	-6.7%	3.8%
Cc1onc(-c2ccccc2Cl)c1C(=O)OCC(=O)c1ccc[nH]1	-17.0%	-2.2%
Cc1ccccc1CNC(=O)Nc1ccc2c(c1)N(C)C(=O)c1ccccc1S2	?	?
Cc1nnc2c(N3CCN(c4ccc(F)cc4)CC3)nc3ccc(C(=O)c4ccccc4)cc3n12	-10.3%	-1.4%
O=C(CC1Sc2ccccc2NC1=O)NNc1ccc(Cl)c(Cl)c1 (centres undefined)	-29.5%	-21.7%
COc1cc(C2CC(=O)c3c([nH]c(C(=O)OC4CCCC4)c3C)C2)cc(OC)c1OC (centres undefined)	?	?
CCc1ccc(NC(=O)Cn2c(=O)n(Cc3ccccc3)c(=O)c3oc4ccccc4c32)cc1	-16.5%	-14.1%
CC1CC(OCC(O)CN2CCOCC2)CC(C)(C)C1 (centres undefined)	-2.4%	3.0%
CC(/C=N/NC(=O)CN1CCN(Cc2ccc(Cl)cc2)CC1)=C\c1ccco1	-11.2%	-19.5%
C#CCNC(=O)C1=C[C@H](c2ccc(Br)cc2)C[C@H](OCc2ccc(CO)cc2)O1	i	-29.9%

The list continues.
SMILES	Vaccinia mCherry	VACV Venus inh
COCCn1nnnc1CN1CCC(C)CC1	i	-8.8%
O=C(Nc1ccc2c(c1)OCO2)c1ccc(Cl)c(S(=O)(=O)N2CCOCC2)c1	-0.6%	-11.8%
COc1ccc(-c2nc(CCNC(=O)c3cccs3)cs2)cc1	-20.0%&-11.0%	-17.7%&-27.6%
COc1ccccc1C1(O)CCN(C(=O)c2cccs2)CC1	-13.4%	-3.6%
CCN(CC)CCSc1nc(O)c(Cc2ccccc2)c(=O)n1-c1ccccc1	-1.4%	-5.8%
Cc1cccc(C)c1NCC(=O)N1CCN(Cc2ccccc2)CC1	i	-7.6%
CCCC12CN3CCN(CC(C3)/C1=N\NC(=O)c1ccccc1Cl)C2	-0.5%	-7.8%
CC(N)c1csc(Nc2nncc3ccccc23)n1 (centres undefined)	i	-11.8%
CCn1cc(C(=O)NC2CCCCC2)c(=O)c2cc(S(=O)(=O)N(C)C)ccc21	-13.8%	-9.0%
COc1ccccc1N1CCN(C(=O)CSc2nc(C)cc(=O)[nH]2)CC1	-4.1%	-5.6%
COc1ccc(CCNC(=O)CCC(=O)N2CC(C)Oc3ccccc32)cc1OC (centres undefined)	-6.2%	-15.8%
O=C(Nc1cc(Cl)cc(Cl)c1)N1CCN(C(=O)C2CCCO2)CC1 (centres undefined)	-18.3%	-19.4%
Cc1ccc(S(=O)(=O)Nc2ccccc2N(C)S(=O)(=O)c2ccc(C)cc2)cc1	i	?
CSCCC(NS(=O)(=O)c1ccc2c(c1)c(=O)n(C)c(=O)n2C)C(=O)NC1CCN(Cc2ccccc2)CC1 (centres undefined)	i	7.3%
COc1ccc(NC(=O)CN(Cc2ccccc2)S(C)(=O)=O)cc1OC	-14.9%	-8.4%
Nc1cccc(C(=O)c2ccccc2C(=O)O)c1	-3.5%	4.4%
Cc1cc(C)cc(NC(=O)C(=O)NCCCN2CCOCC2)c1	7.4%&4.0%	8.3%&2.8%
O=C(CCSCc1ccccc1F)N1CCN(c2ccc(F)cc2)CC1	-4.3%	-3.1%
CCc1ccccc1NS(=O)(=O)c1ccc2c(c1)NC(=O)CC(=O)N2	i	-11.7%
O=C(COc1ccc(Cl)cc1)Nc1ccccc1OCc1cc(=O)n2ccccc2n1	i	-9.7%
CCOC(=O)N1CCC(N2C(=O)c3ccccc3C2Nc2c(C)cccc2C)CC1 (centres undefined)	?	-4.9%
CC(C)C(NC(=O)c1ccco1)C(=O)NC1CCCCCC1 (centres undefined)	i	-4.6%
Cc1cc(SCC(=O)NCc2ccccc2)nc(=O)[nH]1	2.4%	-1.3%
O=C(Nc1ccc(Cl)cc1C(=O)c1ccccc1)c1ccccc1	·	-12.7%
CCCC(=O)N(c1ccc2oc(C)c(C(C)=O)c2c1)S(=O)(=O)c1ccc(C)cc1	-25.4%	-18.4%
COc1ccc(NC(=O)c2c(C)noc2C)cc1S(=O)(=O)N1CCCCC1	-12.4%	-6.5%

Compounds as they come. Share with any hit: about 0.87%.
